Ecoli growth – inhibitors of Escherichia coli growth; OD600 absorbance (concentration not given with the values); OD600, 23 h; stronger effect = lower value; 330,000 compounds, 0.21% hits;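 active means OD600 absorbance below the run mean of sample wells minus 3.6 SD, in any replicate, cut at about 0.56 in these data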;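 further: stock transfer was 300 nL into about 60 µL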
HNF4A DNA FP – change in binding of human HNF4 alpha to DNA; P41235; HNF4a-FITC DNA binding, fluorescence polarization, 1 h; activity change, % at 10 µM; 360,000 compounds, 0.3% hits; AID 1224865; in the data active means activity change above about 30%, passing the limit was not always enough;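 further: controls were the assay level and a saturating level of protein; the project sought stronger binding though the title names inhibitors; some compounds called inactive have numbers as strong as hits; positive values seem to mean higher polarization but the record does not say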
Target sequence (P41235 whole entry, looked up): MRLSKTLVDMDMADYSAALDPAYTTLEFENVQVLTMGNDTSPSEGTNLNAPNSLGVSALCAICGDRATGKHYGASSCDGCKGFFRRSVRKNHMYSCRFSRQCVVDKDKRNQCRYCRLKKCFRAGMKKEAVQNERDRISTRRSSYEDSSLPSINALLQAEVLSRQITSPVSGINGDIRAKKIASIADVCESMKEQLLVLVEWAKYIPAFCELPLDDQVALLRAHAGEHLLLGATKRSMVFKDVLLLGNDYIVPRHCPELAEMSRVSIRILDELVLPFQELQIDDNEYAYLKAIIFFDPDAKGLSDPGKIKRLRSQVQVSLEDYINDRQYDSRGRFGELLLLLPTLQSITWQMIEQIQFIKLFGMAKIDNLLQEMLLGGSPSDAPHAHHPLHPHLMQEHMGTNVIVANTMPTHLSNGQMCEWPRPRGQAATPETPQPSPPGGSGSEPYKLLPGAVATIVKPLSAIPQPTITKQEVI
LANA-H2A inh – blocks KSHV LANA binding to histone H2A/H2B; 320,000 compounds, 0.6% hits; Q9QR71; inhibition, % (test concentration not listed); cell-free LANA-H2A/H2B peptide, fluorescence polarization; in the data active means inhibition mostly above about 10%, no sharp cut-off; inactive means mostly below about 6.7%;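 further: stock transfer was 7.5 nL into about 10 µL; 0% = median of vehicle wells and 100% = median of positive control wells; one replicate is shown; the record names a cut of 25% in any replicate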
UCH37 DUB inh – inhibitors of human deubiquitinating enzyme UCH37; Q9Y5K5; purified proteasome/UCH37, Ub-AMC cleavage fluorescence; inhibition, % (test concentration not listed); 330,000 compounds, 0.33% hits; AID 588478;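 active means mean of two replicates above 20%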;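 further: 0% = compound-free wells with enzyme and 100% = wells lacking proteasome; stock transfer was 100 nL into about 20 µL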
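Material: human UCH37 enzyme supplied as purified proteasome complex / Amount: 0.15 nM proteasome as dispensed / Buffer or medium: pH 7.4 Tris-HCl (50 mM) with ovalbumin, ATP-MgCl2, DTT / Times: preincubation 30 min, reaction 25 min, room temperature / Technique: AMC fluorescence from Ub-AMC cleavage, excitation 355 nm, emission 460 nm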
Vif TR-FRET – inhibitors of Vif binding to APOBEC3G peptide, primary screen, biochemical, TR-FRET, GST-Vif 1-94, biotin-A3G peptide, dose response retest (AID 1117319). one-dose inhibition, %; IC50 in µM for titrated hits. TR-FRET GST-Vif / biotin-A3G peptide binding; higher % means a stronger effect; test concentration not given here; strong numbers were not always called active. 260,000 compounds, 0.57% hits;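 active means above the screen mean plus three standard deviations and confirmed in dose response; inconclusive means results disagree or hit not tested in dose response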;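 further: Vif residues 1-94 fused to GST binding biotinylated APOBEC3G peptide 110-148; 0% = full assay without inhibitor and 100% = GST in place of GST-Vif; retest series ran down from 100 µM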
B2AR ag – agonists of human beta-2 adrenergic receptor inducing internalization | P07550 | Am2.2-beta2AR cells, FAP receptor internalization, flow cytometry; reference of the scale not given here | response, % (no concentration beside the values) | 340,000 compounds, 0.43% hits;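 active means response above a set limit, near 3 SD of response in nonfluorescent compounds, cut at about 42% in these data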;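 further: stock transfer was 100 nL into about 11 µL; a reference agonist was the positive control; negative values mostly stem from fluorescent compounds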
Target sequence (P07550 whole entry, looked up): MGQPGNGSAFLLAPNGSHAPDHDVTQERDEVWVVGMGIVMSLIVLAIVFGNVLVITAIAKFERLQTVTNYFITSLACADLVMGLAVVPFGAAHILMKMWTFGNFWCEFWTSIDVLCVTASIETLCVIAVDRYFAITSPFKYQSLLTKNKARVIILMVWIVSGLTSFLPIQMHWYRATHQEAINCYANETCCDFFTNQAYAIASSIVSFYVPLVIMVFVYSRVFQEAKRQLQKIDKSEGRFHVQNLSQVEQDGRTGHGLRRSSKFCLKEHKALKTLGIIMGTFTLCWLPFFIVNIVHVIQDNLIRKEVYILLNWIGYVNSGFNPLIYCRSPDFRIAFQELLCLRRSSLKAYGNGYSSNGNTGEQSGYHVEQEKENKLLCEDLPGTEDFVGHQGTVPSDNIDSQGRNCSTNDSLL
A1 inh – inhibitors of the anti-apoptotic protein A1, read as caspase activation | MEF A1-2A-BIM cells, Caspase-Glo 3/7 luminescence, 3 h; percent of clofoctol response, vehicle zero | caspase activation, % (concentration not given with the values) | 330,000 compounds, 0.066% hits | AID 2462;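 active means over half of replicate activation scores above 10%, or exactly half above 10 with the replicate mean above 10; inconclusive means replicate mean below 10 yet half the replicates above 10; inactive means over half of replicates below 10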;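 further: wells of about 30 µL received 50 nL stock; many hits fall short of the cut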
An asterisk follows results filed as active; ? = inconclusive; · = not tested or not shown; & = joins results of further samples.

SMILES	Ecoli growth	HNF4A DNA FP	LANA-H2A inh	UCH37 DUB inh	Vif TR-FRET	B2AR ag	A1 inh
CC1(C)OC(=O)C(=CNn2cnc3ccccc3c2=O)C(=O)O1	0.723	-2.2	0.1	6.8	-2.9%	-0.1	1.0
CC(C)[C@H](NC(=O)N1CC(=O)Nc2ccccc21)C(=O)N[C@@H](Cc1c[nH]c2ccccc12)C(=O)O	0.761	-2.4	2.6	1.7	·	9.4	0.3
CSc1ccccc1C(=O)N1CCC2(CC1)CC(=O)c1ccccc1O2	0.659	-0.4	1.1	-10.8	1.2%	0.8	0.4
Cc1onc(-c2ccccc2Cl)c1C(=O)Nc1ccc(CN2CCCC2)cc1	0.733	1.0	-0.5	-2.3	-5.2%	6.2	-0.2
CC(C)(C)c1csc(NC(=O)c2c(F)c(F)c(F)c(F)c2F)n1	0.684	1.1	1.3	2.0	·	-6.8	0.7
COc1ccc2c(c1)CCc1c-2n[nH]c1C(=O)NCCC(C)C	0.683	3.6	1.4	-0.5	-11.7%	-1.5	-3.8
COc1ccc([N+](=O)[O-])cc1N(CC(O)CN(CC(C)C)CC(C)C)S(=O)(=O)c1ccccc1 (stereo not drawn)	0.706	-1.3	0.9	3.3	-4.0%	23.3	0.0
Clc1cccc(Nc2nc(N3CCOCC3)nc(N3CCOCC3)n2)c1	0.696	3.2	-0.9	7.8	·	14.3	-0.9
COc1ccc(NC(=O)N2CCN(c3nc(-c4cccc(OC)c4)cs3)CC2)cc1	0.711	2.3	-3.4	4.5	4.2%	13.6	0.1
O=C(CNC(=O)C1COc2ccccc2O1)Nc1cc(Cl)ccc1Cl (stereo not drawn)	0.661	2.4	·	-1.2	2.4%	0.1	·
Cc1nc(NCC2CCCO2)nc2c1C(=O)CC(C)C2 (stereo not drawn)	0.739	-0.5	-3.2	1.8	-1.2%	-7.4	0.2
O=C(Cc1ccccc1)Nc1ccc(Br)c(Cl)c1	0.697	2.0	2.7	3.7	12.8%	-1.4	-0.2
Cc1ccc(SCC(=O)OCC(=O)NCCc2ccccc2)cc1	0.682	2.6	-3.2	-1.9	-0.3%	4.5	-1.4
O=C(CCN1C(=O)/C(=C\c2ccccc2F)SC1=S)N1CCCCC1	0.702	2.3	-0.8	6.7	-7.4%	1.7	-0.2
CCOc1ccc(N(CC)S(=O)(=O)c2cccc3nsnc23)cc1	0.657	-0.2	-1.1	5.2	-4.8%	-10.4	-1.6
COc1ccc(Nc2nccc3c2ncn3C)cc1	0.7	-2.4	0.1	0.2	·	2.8	-5.3
COC(=O)c1sc(S(=O)(=O)Oc2ccccc2NC(C)=O)c(C(=O)OC)c1C	0.683	1.6	·	5.7	-2.3%	10.3	·
COc1ccc(C2=NN(C(=O)CSc3ncccn3)C(c3ccc(OC)cc3)C2)cc1 (stereo not drawn)	0.731	1.5	-5.4	5.7	·	-12.5	0.3
CN(c1ccccc1)S(=O)(=O)c1cccc(NC(=O)c2ccc(=O)[nH]n2)c1	0.671	-1.0	0.2	2.0	·	2.7	-0.3
COc1cc(OC)cc(C(=O)Nc2nc(CC(=O)NC(C)c3ccccc3)cs2)c1 (stereo not drawn)	0.696	3.8	4.1	5.0	-11.1%	1.5	0.5
Cc1cccc(C(=O)Nc2nc3ccc(S(C)(=O)=O)cc3s2)c1	0.662	-0.5	-0.3	-1.4	·	10.7	-11.5
Cc1cc(C(=O)Nc2ccc(F)cc2)c2ccccc2n1	0.661	-2.6	3.2	2.5	-4.3%	0.8	-0.3
Cc1ccc(S(=O)(=O)N2CCN(C(=O)CCn3nc(C)c(C)c3C)CC2)cc1C	0.627	-5.5	-0.9	0.9	7.3%	5.1	0.0
CN(C(=O)COC(=O)c1ccccc1Nc1ccccc1)c1c(N)n(Cc2ccccc2)c(=O)[nH]c1=O	0.627	2.6	5.2	-9.1	5.6%	-0.6	0.3
Cc1c(CN2CCCC(C(=O)c3cccc(Cl)c3)C2)c(=O)n(-c2ccccc2)n1C (stereo not drawn)	0.686	-1.6	3.1	2.9	?	-4.9	-0.1
Next section:
SMILES	Ecoli growth	HNF4A DNA FP	LANA-H2A inh	UCH37 DUB inh	Vif TR-FRET	B2AR ag	A1 inh
NC(=O)Cn1c(=O)n(Cc2ccco2)c(=O)c2c3c(sc21)CCCCC3	0.65	-16.3	-0.8	6.8	3.8µM*	-7.0	0.1
O=C(Cc1cccs1)N1CCN(c2ccccn2)CC1	0.7	-7.5	-5.0	-1.9	-1.2%	-1.6	-0.7
O=C(Cc1nnc(NC(=O)Nc2ccc(Cl)cc2)s1)NCc1ccccc1	0.681	1.2	-5.8	2.4	-0.1%	1.9	-0.3
CC(C)Cn1c(N2CCN(C(=O)c3cccs3)CC2)nc2ccccc21	0.725	-0.2	1.1	3.2	-1.5%	0.3	2.1
CC1(C)CC(CCN)(Cc2ccccc2Cl)CCO1 (stereo not drawn)	0.704	-2.8	-7.5	1.5	6.7%	1.0	0.0
c1ccc(-c2nc3ccccn3c2-c2ccccc2)cc1	0.688	-1.4	-0.7	-27.1	·	-13.2	-0.1
O=C(CSc1ccccc1F)NCC1(N2CCCCC2)CCCCC1	0.628	-0.2	-34.9	4.6	3.7%	3.7	-1.1
CCOC(=O)c1cnc(-n2nc(C)cc2C)nc1NCCO	0.73	1.3	-0.7	-11.4	1.3%	-14.1	·
O=C(COC(=O)c1ccc2c(c1)OCCO2)Nc1cc(Cl)ccc1Cl	0.763	1.7	4.0	4.3	-12.9%	-7.7	1.1
CC(C)C(=O)N1CCN(c2ccccc2N)CC1	0.73	0.1	-1.2	0.5	14.7%	-8.9	0.5
CCCCOC(=O)c1ccc(NC(=O)C(=O)NCC2CCCO2)cc1 (stereo not drawn)	0.702	-0.4	1.6	-2.0	29.6%	-0.8	0.3
Cc1ccc(S(=O)(=O)N2CCN(C(=O)COC(=O)c3cnc(C)cn3)CC2)c(C)c1	0.611	1.3	-2.2	-0.1	-2.8%	-2.0	0.2
CC1(C)C2CCC1(CS(=O)(=O)N1CCCC1C(=O)O)C(=O)C2 (stereo not drawn)	0.632	5.7	-2.3	-0.7	3.0%	-0.3	-1.5
CCSC1=N/C(=C\C=C2/Oc3ccccc3N2CC)C(=O)S1	0.675	187.1	-11.9	6.0	11.3%	-756.5	0.3
CCNC(=O)NC(=O)C(C)OC(=O)c1ccc(-n2nc(SC)sc2=S)cc1 (stereo not drawn)	0.69	4.7	2.1	6.4	12.0%	-12.0	1.0
COc1ccc(Nc2sc(C(=O)c3ccc(Cl)cc3)c(N)c2C(=O)Nc2ccccc2OC)cc1	0.703	-1.3	-3.8	2.5	4.4%	-10.1	-0.3
COc1ccc(C)cc1S(=O)(=O)N1CCN(C)CC1c1ccccc1 (stereo not drawn)	0.668	-4.8	3.1	0.9	-15.2%	4.3	2.1
CCNCc1nc2cc(OC)c(OC)cc2c(=O)[nH]1	0.668	-3.1	-0.7	0.6	0.9%	2.2	0.8
N#Cc1sc2nc(-c3cccs3)cc(-c3ccc(Cl)cc3)c2c1N	0.756	2.8	-0.5	-133.3	8.7%	-5.0	0.4
O=C(c1ccc(Cl)cc1Cl)N1CCSCC1	0.666	0.2	0.3	4.1	?	-0.9	0.0
CCOC(=O)CC(=O)CSc1nc(-c2ccccc2)cc(-c2ccc(Cl)cc2)c1C#N	0.713	-2.0	7.5	-67.1	-11.0%&-34.8%	11.0	-0.7
CSc1ncccc1C(=O)Nc1ccc(C)cn1	0.665	0.0	-0.9	-0.3	·	2.0	-5.2
O=C(c1cccc(F)c1)N1CCC2(CC1)NCCc1[nH]cnc12	0.714	-3.0	6.8	5.1	·	5.8	0.5
O=C(OCCCc1cc2ccccc2c(=O)o1)N1CCOCC1	0.683	-3.3	0.1	-0.7	·	-6.8	0.7
CC(C)(C)C(=O)COC(=O)c1ccccc1O	0.75	-3.3	3.2	1.4	9.7%	-3.4	1.3
(next part)
SMILES	Ecoli growth	HNF4A DNA FP	LANA-H2A inh	UCH37 DUB inh	Vif TR-FRET	B2AR ag	A1 inh
CC1(C)Oc2ccc3ccc(=O)oc3c2/C(=C/NNC(N)=S)C1=O	·	3.4	2.5	·	·	3.3	0.2
O=C(NCc1cccs1)Nc1cccs1	0.681	3.1	-2.8	-2.8	69.0%	0.0	-0.5
N=c1sc2ccccc2n1-c1ccccc1	0.714	-0.4	-2.3	1.9	8.0%	-8.1	0.5
COc1ccc(CNc2oc(COc3ccccc3)nc2C#N)cc1	0.695	2.6	1.2	-1.4	-1.2%	8.7	0.2
CCOC(=O)CC1C(=O)NC2CCCCC2N1C(=O)Nc1ccc(Cl)cc1 (stereo not drawn)	0.77	0.7	3.4	2.6	0.6%	6.2	0.9
COc1ccc(Nc2nc(C(F)(F)F)nc(C)c2C#N)cc1	0.662	-3.6	·	-1.9	·	-4.8	-1.0
COCC(=O)n1nc(-c2ccc(C)cc2)nc1NCc1ccc(F)cc1	0.716	1.6	·	-0.9	-5.2%	-5.4	·
O=C(O/N=C/c1ccc(Br)cc1)c1ccc(F)cc1	·	-2.9	-4.1	·	·	-3.6	0.4
NC(N)=NS(=O)(=O)c1ccc(NC(=S)NC(=O)Cc2ccc(Cl)cc2)cc1	0.688	2.5	-7.7	-0.9	-9.1%	-0.7	0.9
Cc1cc(C)n(CCNC(=O)c2cc(COc3c(F)cccc3F)on2)n1	0.624	-0.6	-0.8	-0.3	3.5%	-7.7	0.3
S=C(NCCc1ccc(Cl)cc1)NCc1ccccc1	0.675	-3.4	-1.7	3.7	-1.7%	1.2	-0.1
Cc1cc(C)c(Cn2cnc3ccccc32)c(C)c1	0.611	-2.3	-5.1	4.4	-8.7%	5.5	0.3
COC(=O)c1sccc1NC(=O)CSc1ccccc1NS(=O)(=O)c1ccc(Cl)cc1	0.774	-0.6	-1.0	3.2	4.8%	-3.7	-0.7
Cc1cccc(NC(=O)CCN2CCC(C(N)=O)CC2)c1	0.67	2.8	3.8	3.4	-0.3%	-0.1	-1.9
Cc1cc(OCC(=O)N2CCN(c3cccc(Cl)c3)CC2)c2c(C)c(C)c(=O)oc2c1	0.723	-5.2	-2.0	0.4	·	14.0	0.7
COc1ccccc1-c1ccc(Nc2ccc(C(=O)N3CCOCC3)cc2)nn1	0.751	0.5	1.3	5.2	6.1%	-2.2	-4.6
C/C(=N\NC(=O)c1cc(C)oc1C)c1ccc2c(c1)OCO2	·	3.0	5.1	·	-5.2%	0.4	-0.2
CCOC(=O)NC(NCCc1ccccc1)(C(F)(F)F)C(F)(F)F	0.699	-0.2	4.3	5.0	-1.5%	0.1	0.4
O=C(Nc1nccs1)c1cc(S(=O)(=O)N2CCCCC2)ccc1Cl	0.781	-2.4	-1.8	4.7	-10.0%	3.5	-4.3
O=C(Nc1ccc(Br)cc1)c1ccccc1CC[N+](=O)[O-]	0.785	1.1	6.3	5.5	-3.6%	-5.1	-0.4
O=C(Nc1nc2ccc(Cl)cc2s1)c1ccc(Br)o1	0.706	-0.8	1.0	-3.6	-29.3%	-7.2	-5.3
O=C(COc1coc(CN2CCN(c3ccccc3F)CC2)cc1=O)NC1CCCC1	0.625	1.6	1.3	5.9	-4.2%	-0.7	0.7
CC(NC(=O)Nc1ccc(Cl)cc1)C(c1cccs1)N1CCOCC1 (stereo not drawn)	0.727	-4.1	-0.7	5.0	-7.4%	7.3	-0.2
COc1ccccc1NC(=O)COC(=O)c1ccc(S(=O)(=O)N2CCCCCC2)cc1	0.677	-3.9	-3.3	0.6	7.3%	-0.8	-1.1
CC(C)CCN1CC(=O)N2[C@@H](Cc3c([nH]c4ccccc34)C2(C)C)C1=O	0.69	-0.9	-1.2	3.3	6.9%	-9.0	-1.6
COc1cccc2sc(NN)nc12	0.718	0.3	5.4	0.3	-7.2%	3.8	-3.1

Source: PubChem
